# Beta cell apopt: inhibitors of cytokine-induced beta cell apoptosis, primary screen, luminescence; INS-1E cytokine-induced death, ATP luminescence, 48 h; percent of positive-control rescue, neutral wells zero; protection from apoptosis, % (test concentration not listed); hit rate 0.8% among 300,000; AID 435005, 2010;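 active means all replicates at 75% or more, or half of them and the mean; inconclusive means half reach 75% but not the mean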;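 further: 0% = cytokine-treated negative control wells and 100% = positive control rescue; higher means more ATP so stronger rescue from cytokine killing; wells of about 40 µL received 100 nL stock; the first replicate is given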
# LANA-H2A inh: blockers of LANA interaction with H2A/H2B – biochemical, FP readout, HTS, primary screen | Protein LANA1 (Human herpesvirus 8 type P (isolate GK18)), Q9QR71 | cell-free LANA-H2A/H2B peptide, fluorescence polarization | inhibition, % (concentration not given with the values) | hit rate 0.6% among 320,000; in the data active means inhibition mostly above about 10%, no sharp cut-off; inactive means mostly below about 6.7%;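 further: stock transfer was 7.5 nL into about 10 µL; 0% = median of vehicle wells and 100% = median of positive control wells; one replicate is shown; the record names a cut of 25% in any replicate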
# Target sequence (Q9QR71 whole entry, looked up): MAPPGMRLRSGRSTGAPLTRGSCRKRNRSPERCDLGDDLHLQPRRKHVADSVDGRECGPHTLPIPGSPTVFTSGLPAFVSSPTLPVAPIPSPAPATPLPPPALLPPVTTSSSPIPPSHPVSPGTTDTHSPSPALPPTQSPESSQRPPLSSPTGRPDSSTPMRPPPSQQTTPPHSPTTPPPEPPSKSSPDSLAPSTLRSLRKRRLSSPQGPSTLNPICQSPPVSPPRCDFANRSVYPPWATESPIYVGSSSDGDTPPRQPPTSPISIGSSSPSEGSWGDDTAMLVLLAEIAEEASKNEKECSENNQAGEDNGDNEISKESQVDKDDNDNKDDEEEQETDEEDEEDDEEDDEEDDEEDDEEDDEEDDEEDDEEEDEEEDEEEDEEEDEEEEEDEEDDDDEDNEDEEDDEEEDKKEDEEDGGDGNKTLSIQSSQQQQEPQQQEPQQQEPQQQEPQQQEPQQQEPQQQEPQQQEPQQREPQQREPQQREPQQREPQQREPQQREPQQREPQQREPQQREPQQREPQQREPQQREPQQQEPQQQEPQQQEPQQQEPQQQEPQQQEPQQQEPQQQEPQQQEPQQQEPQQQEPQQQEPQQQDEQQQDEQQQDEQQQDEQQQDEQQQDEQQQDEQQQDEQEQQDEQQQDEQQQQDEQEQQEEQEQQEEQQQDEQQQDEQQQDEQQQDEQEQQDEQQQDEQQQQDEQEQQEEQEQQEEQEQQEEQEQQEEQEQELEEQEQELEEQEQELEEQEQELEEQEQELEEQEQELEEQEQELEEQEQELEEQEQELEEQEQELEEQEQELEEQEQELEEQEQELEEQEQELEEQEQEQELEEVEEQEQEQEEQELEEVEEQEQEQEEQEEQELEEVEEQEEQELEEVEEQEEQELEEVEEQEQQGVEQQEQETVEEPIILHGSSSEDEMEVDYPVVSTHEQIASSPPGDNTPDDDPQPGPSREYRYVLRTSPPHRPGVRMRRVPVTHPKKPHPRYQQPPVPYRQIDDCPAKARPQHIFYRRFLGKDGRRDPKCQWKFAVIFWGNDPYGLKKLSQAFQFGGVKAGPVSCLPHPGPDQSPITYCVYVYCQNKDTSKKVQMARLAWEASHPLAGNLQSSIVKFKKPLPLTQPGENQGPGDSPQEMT
# UCH37 DUB inh: inhibitors of human UCH37 deubiquitinase, primary screen, biochemical, Ub-AMC cleavage, fluorescence; Ubiquitin carboxyl-terminal hydrolase isozyme L5 (Homo sapiens), Q9Y5K5; AID 588478, 2011; inhibition, % (no concentration beside the values); hit rate 0.33% among 330,000; purified proteasome/UCH37;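 active means mean of two replicates above 20%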;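 further: 0% = compound-free wells with enzyme and 100% = wells lacking proteasome; stock transfer was 100 nL into about 20 µL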
#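 Reagent: Ub-AMC substrate; assay system: Proteasome-associated human UCH37 deubiquitinase; controls: no-proteasome and no-compound wells; read-out: % inhibition of Ub-AMC cleavage fluorescence; timing: 30 min preincubation with enzyme, 25 min cleavage at room temperature; signal: AMC fluorescence from Ub-AMC cleavage, excitation 355 nm, emission 460 nm; buffer or medium: Tris-HCl pH 7.4 plus ovalbumin, ATP-MgCl2, DTT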
# B2AR ag: beta2AR agonists driving receptor internalization, primary screen, cell-based, FAP fluorogen, flow cytometry | Beta-2 adrenergic receptor (Homo sapiens), P07550 | Am2.2-beta2AR cells; reference of the scale not given here | response, % (no concentration beside the values) | hit rate 0.43% among 340,000 | AID 504454, 2011;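 active means response above a set limit, near 3 SD of response in nonfluorescent compounds, cut at about 42% in these data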;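 further: stock transfer was 100 nL into about 11 µL; a reference agonist was the positive control; negative values mostly stem from fluorescent compounds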
# RanGTP-Impb inh: inhibitors of RanGTP-importin-beta interaction, primary screen, biochemical, FRET, CFP-Ran, YFP-importin-beta, homogeneous. Ran GTPase (GTP-bound) - importin-beta complex. hit rate 1.1% among 300,000. cell-free CFP-Ran/YFP-importin-beta FRET ratio. inhibition, % (test concentration not listed);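 active means most replicates above 15%; inconclusive means exactly half above 15%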;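 further: 0% = DMSO wells and 100% = Ran loaded with GDP instead of GTP; wells of about 40 µL received 100 nL stock; the first replicate is given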
# Bfl-1 A1 inh: caspase 3/7 activation in MEF A1-2A-BIM cells, primary screen, A1 inhibitor project, cell-based, luminescence, HTS; hit rate 0.066% among 330,000; AID 2462, 2010; Caspase-Glo 3/7 luminescence, 3 h; percent of clofoctol response, vehicle zero; caspase activation, % (concentration not given with the values);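 active means over half of replicate activation scores above 10%, or exactly half above 10 with the replicate mean above 10; inconclusive means replicate mean below 10 yet half the replicates above 10; inactive means over half of replicates below 10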;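 further: wells of about 30 µL received 50 nL stock; many hits fall short of the cut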
# T cruzi inh: inhibitors of intracellular T. cruzi growth, primary screen, luminescence, NIH3T3 host cells; T. cruzi beta-gal in NIH3T3, 90 h; inhibition, % (concentration not given with the values); hit rate 1.4% among 300,000;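 active means mean inhibition across valid replicates above about 55%, limit read from the data; inconclusive means mean below that limit but half or more replicates reach it; inactive means mean below it, under half of replicates reach it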;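 further: signal also drops with host cell toxicity which is not excluded here; 0% = plate median of DMSO wells and 100% = zero luminescence signal; higher percent means less beta-gal luminescence so fewer parasites; stock transfer was 50 nL into about 50 µL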
# Calb FLC: C. albicans growth inhibition with fluconazole, primary screen, CaCi-2 strain, Alamar Blue fluorescence | hit rate 0.57% among 300,000 | C. albicans CaCi-2 (fluconazole-resistant clinical isolate) + fluconazole, 48 h | growth inhibition, % (concentration not given with the values);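 active means most replicates above 75%; inconclusive means exactly half above 75%; inactive means most below 75%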;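 further: all wells also contain fluconazole at 8 µg/ml as a sub-toxic cotreatment; 0% = median of DMSO wells and 100% = median of geldanamycin control wells; wells of about 8 µL received 7.5 nL stock; the first replicate is given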
# * hit, by the source's call; i = inactive; u = inconclusive; x = no result given.
SMILES,Beta cell apopt,LANA-H2A inh,UCH37 DUB inh,B2AR ag,RanGTP-Impb inh,Bfl-1 A1 inh,T cruzi inh,Calb FLC
O=C(NCCCN1CCOCC1)c1ccc2c(c1)N(Cc1ccccc1)C(=O)c1ccccc1S2,-1,0.5,2.1,4,-2.8,0.7,25,-9
Cc1cc(=O)oc2cc(OCC(=O)N3CCCC3)ccc12,1,-1.5,-46,11,x,0.4,x,x
CCN(CC(=O)Nc1c(F)cccc1F)C(=O)CCN1C(=O)C2CCCCC2C1=O (stereo not given),-5,1.0,0.4,-4,u,-0.4,-5,5
COc1cccc(OCCCCN2CC(C)OC(C)C2)c1 (stereo not given),-7,4.2,3.8,2,2.8,-0.8,15,0
Cc1nc(SCC(=O)c2ccc(Cl)cc2)c([N+](=O)[O-])[nH]1,2,3.8,6.7,4,-6.5,0.9,-9,u
CCN(CC)CC(=O)Nc1ccc2c(c1)Nc1ccccc1CC2,0,-5.1,0.9,8,-6.7,0.1,29,-5
Cc1ccc(S(=O)(=O)Nc2ccc3c(c2)C(=O)N([C@H](C)CO)C[C@H](C)[C@@H](CN(C)C(=O)Nc2ccc4c(c2)OCO4)O3)cc1,-7,3.8,1.6,-15,x,0.1,x,x
COc1ccc(-n2nc(C(=O)NCC(=O)N3CC(C)CC(C)C3)c3ccccc3c2=O)cc1OC (stereo not given),3,0.4,1.7,9,2.9,-0.8,14,2
CC(C)c1ccc(CCNC(=O)CSC(=S)N2CCCC2)cc1,-8,-2.7,1.2,-4,2.7,-0.1,-4,15
Cc1ccccc1S(=O)(=O)c1c(C)cc(C)n(C(C)C)c1=O,-10,-3.6,0.4,2,3.1,0.5,12,3
COc1ccc(NC(C)=[N+](C)CCNS(=O)(=O)c2ccc(Cl)cc2)cc1Cl,-4,6.4,1.8,6,1.0,0.3,58*,-9
CSc1cccc(CN2CCCC(CO)(Cc3cccc(Cl)c3)C2)c1 (stereo not given),9,-8.2,3.8,-1,0.1,-0.8,62*,-26
CC(Sc1nc2c(c(=O)[nH]1)CCCC2)C(=O)Nc1ccccc1C#N (stereo not given),-5,-1.1,4.3,-6,-2.9,-0.5,4,11
CC(C)(C)OC(=O)N[C@@H](Cc1ccccc1)C(=O)N1CCC(C(=O)N[C@@H](Cc2c[nH]c3ccccc23)C(=O)O)CC1,-1,2.6,5.2,4,-0.4,0.3,2,4
COCCCNCCCCSc1ccc(Cl)cc1,-2,x,1.1,1,-0.4,-0.3,52,4
Cc1cc(NC(=O)c2ccc(Br)c(S(=O)(=O)N3CCCC3)c2)no1,-3,-0.3,-0.6,-6,-1.8,0.5,0,10
Cn1c(OCc2cccnc2)nc2c1c(=O)n(Cc1ccccc1)c(=O)n2C,x,2.7,3.1,-6,1.3,-0.3,1,-4
C=CCN1c2ccccc2[C@]23C[C@@H](C(=O)OC)N(C(=O)NC4CCCC4)C2=NC(C(=O)OC)=C(C(=O)OC)[C@H]13,4,-3.2,3.7,3,0.9,-0.5,16,5
COc1ccc(NS(=O)(=O)c2ccc(N3CCOCC3)c(NC(=O)c3cccc(F)c3)c2)cc1,0,-2.7,-1.0,-1,1.2,0.5,-27,-5
O=C(CN1CCc2ccccc21)NC(=O)NC1CCCCC1,-2,-0.3,2.3,1,4.9,1.2,-6,0
CC1(C)[C@H](C(=O)O)N2C(=O)C[C@H]2S1(=O)=O,-8,1.2,1.7,1,-2.8,0.1,-12,-3
CC(C)C(C(=O)C=[N+]=[N-])N1C(=O)c2ccccc2C1=O (stereo not given),0,-2.5,4.9,-1,-2.0,-0.2,-8,7
O=C(COc1ccc(Cl)cc1Br)Nc1ccncc1,-1,21,6.1,-11,-1.3,0.3,-4,3
Cc1ccc(C(c2c(C)n(C)n(-c3ccccc3)c2=O)c2c(C)n(C)n(-c3ccccc3)c2=O)s1,8,-2.9,1.2,-23,-1.3,0.1,3,0
Cc1ccc(-c2cc(C(=O)N3CCN(C(=O)c4ccco4)CC3)[nH]n2)c(C)c1,5,-0.2,0.9,-12,3.3,0.2,6,1
Cc1noc(NS(=O)(=O)c2ccc(N3CC(O)=C(c4ccccc4)C3=N)cc2)c1C,1,-2.9,2.8,-2,2.7,1.0,-14,7
CCC(=O)N1N=C(c2ccc(C)o2)CC1c1ccc(Br)cc1 (stereo not given),x,-0.6,-0.2,-17,0.6,-0.1,18,-12
COc1ccc(N(CC(=O)N2CCN(c3ccc(F)cc3)CC2)S(=O)(=O)c2c(C)n[nH]c2C)cc1,0,0.3,-1.2,20,-1.2,1.6,2,9
O=c1[nH][nH]cc1C=Nc1cc(Cl)ccc1O,-12,-1.2,0.4,2,-3.9,0.9,14,21
CC(C)(C)OC(=O)C[C@@H]1C/C=C\C[C@H](CC(=O)N(CCO)Cc2ccccc2)C(=O)N2CCC[C@@H]2COC1=O,7,-0.6,-0.8,-5,x,1.5,x,x
CCCCN(CCCC)S(=O)(=O)c1ccc(SCC(=O)OCC)c([N+](=O)[O-])c1,-5,2.3,0.7,2,u,-0.6,2,19
CCn1cc(C(=O)O)c(=O)c2cc(F)c(N3CCN(C(=S)NC(=O)c4ccc(OC)cc4)CC3)cc21,-10,-0.3,-22,7,0.6,-0.3,-4,8
CCC(C(=O)NC1CCCC1)N(Cc1ccccc1Cl)C(=O)c1snc(C(N)=O)c1N (stereo not given),1,-4.7,-52,3,6.3,0.6,0,-3
CCN(CC(=O)Nc1cc(Cl)ccc1C)c1ncnc2sc(C)c(C)c12,6,2.3,6.2,-4,5.2,0.2,20,-2
O=C(CSc1n[nH]c(-c2cccs2)n1)N1CCCc2ccccc21,-6,0.3,3.5,-14,4.2,0.0,5,-12
Cc1ccc(S(=O)(=O)N2CCC(N3CCCCCC3)CC2)cc1,0,-1.0,-2.0,-9,-4.0,0.0,4,-1
Cn1c(SCC(=O)NCc2ccccc2)nc2ccccc21,-4,-2.0,0.1,-1,-2.9,0.6,0,-4
CN1CCN(C(=O)c2ccc(CS(=O)(=O)c3c(Cl)cccc3Cl)o2)CC1,x,2.1,7.7,6,0.8,0.2,-4,-2
O=C(Nc1ccon1)c1csc2ccccc12,0,-6.5,2.5,-9,1.3,1.6,-1,-4
COc1ccc(C2=NOC(C(=O)Nc3cc(Br)ccc3O)C2)cc1OC (stereo not given),4,-3.0,0.3,5,-0.3,-1.1,-9,-7
O=C(Nc1nc(-c2ccc(F)cc2)cs1)C1CCCO1 (stereo not given),3,-3.3,-0.6,9,-3.9,-0.1,5,7
Cn1ccsc1=NC(=O)c1ccccc1OC(F)F,4,-3.3,0.8,-5,2.5,-0.6,1,9
O=C(Nc1nc2ccccc2n1CCN1CCOCC1)c1ccccc1,2,-2.4,2.2,-9,6.5,-0.9,-9,1
O=C1C2C3C=CC(CC3)C2C(=O)N1c1cccc(C(F)(F)F)c1 (stereo not given),x,1.0,2.6,1,0.5,-0.3,-8,1
Cc1c(OCC(=O)NC(Cc2ccc(Cl)cc2)C(=O)O)ccc2c3c(c(=O)oc12)CCC3 (stereo not given),-7,0.9,-15,4,5.0,0.2,-4,-2
COc1cccc(C=Nc2ccc3c(c2)CCC3)c1O,x,-1.3,1.2,5,-0.8,0.6,-7,-1
CCCCN1CCCCC1C(=O)Nc1c(C)cccc1C (stereo not given),-5,-2.1,2.6,-1,x,0.7,x,x
CCC1=Nc2cc(C(=O)NCC3CCCO3)ccc2Sc2ccc(Br)cc21 (stereo not given),20,-1.7,x,20,-4.4,1.9,33,0
Nc1ccccc1Sc1ccc(C(=O)c2ccccc2C(=O)O)cc1[N+](=O)[O-],-5,0.0,6.1,-2,2.5,1.8,-15,8
Cc1cc(C)cc(C(=O)N/N=C/c2ccoc2)c1,3,4.9,x,-2,-1.4,-0.3,-10,12
COc1ccc(NC(=O)C2CCC(=O)N2C(=O)OCc2ccccc2)cc1 (stereo not given),-3,11,-0.1,-6,1.7,-1.3,-4,-1
COc1cc(O)c(C(CCN2CCOCC2)c2ccc3c(c2)OCO3)c(OC)c1 (stereo not given),-5,2.7,4.4,-1,1.3,0.6,-7,7
Cn1c(CNC(=O)Nc2ccccc2Cl)nnc1SCc1ccccc1,-4,0.6,1.1,2,4.5,-0.8,-8,-3
CCOC(=O)c1ccc(NCc2nc3ccccc3[nH]2)cc1,-3,2.2,2.7,-1,-0.2,-5.2,10,-2
Cn1cc(C2CC(c3ccccc3)=NN2C(=O)c2ccccc2)c2ccccc21 (stereo not given),5,-3.1,3.8,4,-8.7,0.0,10,5
NC(=O)CSc1nc2c(sc3ccccc32)c(=O)n1CCCC(=O)NCC1CCCO1 (stereo not given),-5,-3.7,2.8,-2,-0.1,-0.6,-11,0
CCCCOC(=O)c1ccccc1N1C(=O)C2C3CCC(C3)C2C1=O (stereo not given),-3,0.8,4.3,2,3.9,1.7,7,9
CC1CCCCN1C(=O)CCc1nnc(Cc2c[nH]c3ccccc23)o1 (stereo not given),0,-0.8,0.9,-6,4.2,0.3,3,7
O=C(COc1ccc(-c2ccccc2)cc1)N/N=C/c1cccnc1,-5,-5.8,x,0,0.4,-1.0,-22,3
Cc1cc(NCCCN(C)C)n2c(nc3ccccc32)c1C#N,17,-2.0,i,-2,u,0.1,44,-7
# (more compounds)
SMILES,Beta cell apopt,LANA-H2A inh,UCH37 DUB inh,B2AR ag,RanGTP-Impb inh,Bfl-1 A1 inh,T cruzi inh,Calb FLC
CCOc1cc(C=O)ccc1OCCn1c([N+](=O)[O-])cnc1C,-8,0.7,3.1,8,0.3,-0.8,-8,0
O=C(c1ccc(CSc2ccc(Cl)cc2)cc1)N1CCOCC1,-4,1.2,1.4,-2,4.3,-0.6,4,8
Cc1ccc(NC(=O)CSc2nc3[nH]ncc3c(=O)[nH]2)c(C)c1,0,-0.1,5.4,13,-0.6,1.3,-4,-12
CCn1cc2nc(SCC(=O)Nc3ccc(F)cc3F)n(Cc3ccccc3)c(=O)c2n1,9,5.2,-0.9,-6,-0.5,-1.3,31,24
CC1CN(CCC(=O)Nc2ccccc2F)CC(C)O1 (stereo not given),-3,2.1,3.5,6,0.8,-0.4,-19,-8
CS(=O)(=O)N1CCc2cc(C(=O)Nc3ccc(Br)cc3)ccc21,-1,2.9,-0.7,6,0.2,0.9,8,-2
CSC1=N/C(=C\c2ccc(Br)o2)C(=O)S1,3,-8.3,3.6,3,0.3,-0.8,x,-13
CC1CCCN(S(=O)(=O)c2cccc([N+](=O)[O-])c2)C1 (stereo not given),-1,0.6,-0.6,8,-2.1,1.9,-5,-12
CC(C)c1nnc(NC(=O)c2nc(S(=O)(=O)Cc3ccccc3)ncc2Cl)s1,x,x,x,23,2.1,x,-22,-2

# Source: PubChem BioAssay
